High-throughput results (PubChem BioAssay)
Bead autofluor – counter-screen for toxin protease inhibitors: compound fluorescence. compound autofluorescence counterscreen, microsphere flow cytometry; hits give high values. fluorescence intensity (no concentration beside the values). 360,000 compounds, 3.1% hits;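 active = at least 3 SD above the mean of all compounds, about 16000 in these data; inconclusive = too few beads counted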;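 note: 100 nL of 1 mM stock went into each well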
Sa RN4220 lethal – growth inhibition of S. aureus RN4220, primary screen, OD600 | AID 1259311, 2017 | 330,000 compounds, 0.33% hits | inhibition, % (concentration not given with the values) | 16 h;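 active = z-score of -3 or lower and OD600 up to 0.18 on both plates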;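 note: plate controls were untreated cells for no effect and reference antibiotic for full effect; stock transfer was 100 nL into about 80 µL; one replicate is shown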
PrP UTR inh – inhibition of PrP 5' UTR reporter expression; cell-based PrP 5' UTR mRNA reporter, plate reader; inhibition, % (test concentration not listed); 340,000 compounds, 0.35% hits; AID 488862, 2010;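 active = every replicate at 50% or more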;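 note: 0 = median of the neutral control wells; tested in H4 reporter cells; numbers are from one replicate; inactives centre near -14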
Sa ugtP lethal – growth inhibition of ugtP-null S. aureus, primary screen, RN4220 ugtP deletion, OD600; 16 h; some inactives read as strong as hits; growth inhibition, % (test concentration not listed); 330,000 compounds, 0.54% hits; AID 1259309, 2017;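 active = z-score under -3 and OD600 up to 0.15 on both plates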;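 note: plate controls were untreated wells for no effect and antibiotic for full effect; wells of about 80 µL received 100 nL stock; the first replicate is given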
Mtb hypoxia rep – PubChem AID 1159583; M. tuberculosis hypoxia-regulated fluorescent reporter, fluorescence; fluorescence inhibition, % (concentration not given with the values); 300,000 compounds, 0.1% hits;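 active = 35 to 45% if threefold the growth effect, above 45% if 1.5-fold the growth effect; inactive = the rest, general growth blockers included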;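 note: wells of about 50 µL received 100 nL stock; 0% = vehicle wells and 100% = reference inhibitor wells; whole bacteria with a GFP reporter of the hypoxia response; strong numbers were not always called active; many hits fall short of the cut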
BJeLR lethal – MLPCN primary cell-based screen for lethality selective to Ras in HRASV12 cells; BJeLR (HRASV12) viability, CellTiter-Glo ATP luminescence, 48 h; reference of the scale not given here; inhibition, % (test concentration not listed); 300,000 compounds, 0.17% hits;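 active = replicate mean above 50%; inconclusive = above 50% but judged a plate artefact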;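 note: 50 nL library stock added to about 25 µL; numbers are from one replicate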
Mtb hypoxia rep growth – recorded beside Mtb hypoxia rep, whose call it bears; growth inhibition, %; measured here: M. tuberculosis growth (absorbance);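 0% = vehicle and 100% = reference antibiotic; read after six days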
* = called active by the depositor.

What do the screens show for `COCCCNC(=O)c1ccc(N(C)S(=O)(=O)c2ccc(OC)cc2)cc1`?
Bead autofluor: 5068; Sa RN4220 lethal: 2.1; PrP UTR inh: -31; Sa ugtP lethal: 4; BJeLR lethal: -5

What do the screens show for `O=C(c1ccc(NS(=O)(=O)c2ccccc2)cc1)N1CCCC1`?
Bead autofluor: 3253; Sa RN4220 lethal: 5.6; PrP UTR inh: -22; Sa ugtP lethal: -6; Mtb hypoxia rep: 1; BJeLR lethal: 6; Mtb hypoxia rep growth: 1

How did CC(=O)NC(C(=O)N1CCC(c2nc3ccccc3s2)CC1)C(C)C (stereo not given) do in these assays?
Bead autofluor: 4775; Sa RN4220 lethal: 3.0; PrP UTR inh: -2; Sa ugtP lethal: 9; Mtb hypoxia rep: 11; BJeLR lethal: 4; Mtb hypoxia rep growth: 7

How did CC(=NOCC(=O)Nc1ccc(F)c(F)c1F)c1cc2ccccc2o1 do in these assays?
Sa RN4220 lethal: 1.6; Sa ugtP lethal: -13; Mtb hypoxia rep: 4; Mtb hypoxia rep growth: 9

How did Cc1cc2c(c(N)n1)c(=O)oc1ccccc12 do in these assays?
Bead autofluor: 2421; Sa RN4220 lethal: 2.9; PrP UTR inh: -4; Sa ugtP lethal: -3; Mtb hypoxia rep: 3; BJeLR lethal: 3; Mtb hypoxia rep growth: 5

Results for Nc1nc(SCC(=O)NCCc2ccccc2)[nH]c(=O)c1-c1ccccc1 ?
Sa RN4220 lethal: 3.7; Sa ugtP lethal: 8; Mtb hypoxia rep: 5; BJeLR lethal: 2; Mtb hypoxia rep growth: -1

How did O=C(Nc1nc(NC(=O)c2ccco2)n(-c2ccccc2)n1)c1ccccc1 do in these assays?
Bead autofluor: 7919; Sa RN4220 lethal: 92*; PrP UTR inh: 19; Sa ugtP lethal: 76; Mtb hypoxia rep: -4; BJeLR lethal: 24; Mtb hypoxia rep growth: 20

Results for Cc1ccc(CNC(=O)C2CCC(=O)N(CCc3ccc(Cl)cc3)C2)s1 (stereo not given) ?
Bead autofluor: 6173; Sa RN4220 lethal: -2.4; PrP UTR inh: -25; Sa ugtP lethal: 14; Mtb hypoxia rep: 13; BJeLR lethal: -5; Mtb hypoxia rep growth: 7

What do the screens show for `Cc1cc(C)cc(OCC(=O)NN=Cc2ccncc2)c1`?
Sa RN4220 lethal: 5.7; Sa ugtP lethal: 4; Mtb hypoxia rep: 6; Mtb hypoxia rep growth: 4

How did CCNc1cc(Cl)nc(SC)n1 do in these assays?
Bead autofluor: 4648; Sa RN4220 lethal: -4.4; PrP UTR inh: -3; Sa ugtP lethal: 11; BJeLR lethal: 4

Results for Cc1[nH]n(-c2ccc([N+](=O)[O-])cc2)c(=O)c1C=NN1CCOCC1 ?
Sa RN4220 lethal: -2.1; Sa ugtP lethal: -1; Mtb hypoxia rep: -6; Mtb hypoxia rep growth: -3

How did Cc1ccc(CNS(=O)(=O)c2c(C)n(C)c(=O)n(C)c2=O)cc1 do in these assays?
Bead autofluor: inconclusive; Sa RN4220 lethal: 3.0; PrP UTR inh: -15; Sa ugtP lethal: 15; Mtb hypoxia rep: 3; BJeLR lethal: 8; Mtb hypoxia rep growth: 6

What do the screens show for `COc1ccc(CCNC(=O)C(=O)NCCC2CCCCN2S(=O)(=O)c2ccccc2)cc1` (stereo not given)?
Bead autofluor: 5819; Sa RN4220 lethal: 1.6; PrP UTR inh: -16; Sa ugtP lethal: 5; Mtb hypoxia rep: -9; BJeLR lethal: 1; Mtb hypoxia rep growth: 0

How did CC(=O)c1cccc(NC(=O)CCOc2ccccc2)c1 do in these assays?
Bead autofluor: 2737; Sa RN4220 lethal: 4.7; PrP UTR inh: -40; Sa ugtP lethal: -1; BJeLR lethal: -3

Results for O=C1NC2(CCCCCC2)N=C1c1ccc(Br)cc1 ?
Bead autofluor: 4246; Sa RN4220 lethal: 0.9; PrP UTR inh: -62; Sa ugtP lethal: -7; Mtb hypoxia rep: -7; BJeLR lethal: -3; Mtb hypoxia rep growth: -6

How did C[C@@H](C(=O)NC1CCCC1)N1C(=O)N2CCc3c([nH]c4ccccc34)[C@@]2(C)C1=O do in these assays?
Bead autofluor: 5521; Sa RN4220 lethal: 6.1; PrP UTR inh: -17; Sa ugtP lethal: 9; BJeLR lethal: 1

Results for COC(=O)COc1ccc(C2NC(=O)NC(c3ccccc3)=C2C(C)=O)cc1OC (stereo not given) ?
Bead autofluor: 2357; Sa RN4220 lethal: 4.8; PrP UTR inh: -11; Sa ugtP lethal: 3; Mtb hypoxia rep: 6; BJeLR lethal: 2; Mtb hypoxia rep growth: 12

What do the screens show for `CCOC(=O)C(=CNc1ccc(NC2=NCC(C)(C)S2)cc1)C(=O)OCC`?
Bead autofluor: 5588; Sa RN4220 lethal: -2.2; PrP UTR inh: -1; Sa ugtP lethal: -12; Mtb hypoxia rep: 8; BJeLR lethal: 1; Mtb hypoxia rep growth: 0

Results for CCN(CC(=O)NCc1ccc(F)cc1)C(=O)c1cccnc1SC ?
Bead autofluor: 4719; Sa RN4220 lethal: 4.2; PrP UTR inh: 2; Sa ugtP lethal: 4; Mtb hypoxia rep: -7; BJeLR lethal: -7; Mtb hypoxia rep growth: -10

What do the screens show for `COC(=O)c1cn(CCOc2ccccc2F)c2ccccc12`?
Bead autofluor: 4599; Sa RN4220 lethal: 4.9; PrP UTR inh: -23; Sa ugtP lethal: -14; Mtb hypoxia rep: 6; BJeLR lethal: 1; Mtb hypoxia rep growth: 3

What do the screens show for `O=C1CCC([N+](=O)[O-])C(c2cccc3ccccc23)N1` (stereo not given)?
Bead autofluor: 5380; Sa RN4220 lethal: 7.9; PrP UTR inh: -22; Sa ugtP lethal: 5; Mtb hypoxia rep: -6; BJeLR lethal: -1; Mtb hypoxia rep growth: -1

What do the screens show for `Cn1cnnc1SCC(=O)NCc1cccc(C(F)(F)F)c1`?
Bead autofluor: 4380; Sa RN4220 lethal: 4.6; PrP UTR inh: -21; Sa ugtP lethal: 11; Mtb hypoxia rep: 12; BJeLR lethal: -1; Mtb hypoxia rep growth: 11

What do the screens show for `COc1ccc(N/C=C2\CCOC2=O)cc1`?
Bead autofluor: 16257*; Sa RN4220 lethal: 0.1; PrP UTR inh: -2; Sa ugtP lethal: -3; Mtb hypoxia rep: -5; BJeLR lethal: 4; Mtb hypoxia rep growth: -9

Results for CSc1nc2c(c(=O)[nH]1)C(c1ccncc1)C(C(=O)OC(C)C)=C(C)N2 (stereo not given) ?
Bead autofluor: 3204; Sa RN4220 lethal: 1.7; PrP UTR inh: -21; Sa ugtP lethal: 0; Mtb hypoxia rep: 5; BJeLR lethal: 8; Mtb hypoxia rep growth: 5

Results for COCC(C)NC(=O)CCSc1nc(-c2ccc(OC)cc2)cc(C(F)(F)F)n1 (stereo not given) ?
Bead autofluor: 3930; Sa RN4220 lethal: 8.8; PrP UTR inh: -2; Sa ugtP lethal: 20; Mtb hypoxia rep: 5; BJeLR lethal: 13; Mtb hypoxia rep growth: 15

How did O=C1CCN(S(=O)(=O)c2ccc(Cl)cc2)CCN1 do in these assays?
Bead autofluor: 5040; Sa RN4220 lethal: 3.0; PrP UTR inh: -9; Sa ugtP lethal: -10; Mtb hypoxia rep: 8; BJeLR lethal: -10; Mtb hypoxia rep growth: 2

Results for CCOC(=O)c1cnc(Nc2nc3ccccc3o2)nc1CSc1ncccn1 ?
Sa RN4220 lethal: 1.0; Sa ugtP lethal: 4; BJeLR lethal: -4

Results for O=C1CCCC/C1=C\Nc1ccc(O)cc1 ?
Bead autofluor: 10964; Sa RN4220 lethal: -2.1; PrP UTR inh: -10; Sa ugtP lethal: -10; Mtb hypoxia rep: 3; BJeLR lethal: -7; Mtb hypoxia rep growth: 7

How did CC(C)c1ccc(/C=C2\SC(=O)N(CC(=O)NCCCn3ccnc3)C2=O)cc1 do in these assays?
Bead autofluor: 6127; Sa RN4220 lethal: 4.5; PrP UTR inh: -47; Sa ugtP lethal: 1; Mtb hypoxia rep: 1; BJeLR lethal: 5; Mtb hypoxia rep growth: 10

How did Cc1c(CC(=O)O)c(=O)oc2cc3occ(-c4ccccc4)c3cc12 do in these assays?
Bead autofluor: 4042; Sa RN4220 lethal: -1.6; PrP UTR inh: -25; Sa ugtP lethal: 9; Mtb hypoxia rep: 5; BJeLR lethal: -3; Mtb hypoxia rep growth: 4

What do the screens show for `O=C(c1ccc2c(c1)OCO2)N1CCC2(CC1)Oc1ccc(F)cc1C(=O)C21CC(c2ccc(Cl)cc2)=NO1` (stereo not given)?
Bead autofluor: 2857; Sa RN4220 lethal: 0.8; PrP UTR inh: -12; Sa ugtP lethal: -12; Mtb hypoxia rep: 2; BJeLR lethal: 2; Mtb hypoxia rep growth: 11

What do the screens show for `CC(C)NC(=O)C1CC(=O)N(c2ccc(F)c(Cl)c2)C1` (stereo not given)?
Bead autofluor: 2868; Sa RN4220 lethal: -11; PrP UTR inh: -14; Sa ugtP lethal: -3; Mtb hypoxia rep: 19; BJeLR lethal: -12; Mtb hypoxia rep growth: 5

How did Cc1ccc(-c2nnc(N3CCN(C(=O)COc4cccc(C)c4)CC3)c3ccccc23)cc1 do in these assays?
Bead autofluor: 3745; Sa RN4220 lethal: 1.2; PrP UTR inh: -31; Sa ugtP lethal: -13; Mtb hypoxia rep: -7; BJeLR lethal: 1; Mtb hypoxia rep growth: -2

How did CC(=O)c1cnc2sccn2c1=O do in these assays?
Bead autofluor: 4657; Sa RN4220 lethal: 1.3; PrP UTR inh: -57; Sa ugtP lethal: 5; Mtb hypoxia rep: 6; BJeLR lethal: -7; Mtb hypoxia rep growth: 7

How did O=C(COC(=O)c1n[nH]c2ccccc12)Nc1ccc(Cl)cc1[N+](=O)[O-] do in these assays?
Bead autofluor: 3548; Sa RN4220 lethal: 11; PrP UTR inh: -14; Sa ugtP lethal: -9; Mtb hypoxia rep: -5; BJeLR lethal: -4; Mtb hypoxia rep growth: -4

What do the screens show for `CC(C)CC(NC(N)=O)C(=O)Nc1ccc(Cl)c(Cl)c1` (stereo not given)?
Bead autofluor: 3989; Sa RN4220 lethal: -1.8; PrP UTR inh: -97; Sa ugtP lethal: -5; Mtb hypoxia rep: 1; BJeLR lethal: 6; Mtb hypoxia rep growth: 4

Results for Cc1c(NC(=O)CSCc2ccc(Br)cc2)c(=O)n(-c2ccccc2)n1C ?
Bead autofluor: 3288; Sa RN4220 lethal: 6.8; PrP UTR inh: 0; Sa ugtP lethal: 4; Mtb hypoxia rep: -1; BJeLR lethal: 2; Mtb hypoxia rep growth: -2

How did Cc1cccc(OCC(=O)OCC(=O)c2c(N)n(C)c(=O)n(C)c2=O)c1C do in these assays?
Bead autofluor: 4655; Sa RN4220 lethal: 0.2; PrP UTR inh: -19; Sa ugtP lethal: 16; BJeLR lethal: -4

Results for COc1ccc(C)cc1NC(=O)CCS(=O)(=O)c1ccc2c(c1)oc(=O)n2C ?
Bead autofluor: 5606; Sa RN4220 lethal: 1.3; PrP UTR inh: -13; Sa ugtP lethal: 0; Mtb hypoxia rep: 3; BJeLR lethal: -1; Mtb hypoxia rep growth: 1

Results for N#Cc1cc([N+](=O)[O-])ccc1NCCCn1ccnc1 ?
Bead autofluor: 10799; Sa RN4220 lethal: 6.1; PrP UTR inh: -1; Sa ugtP lethal: 8; Mtb hypoxia rep: 11; BJeLR lethal: 5; Mtb hypoxia rep growth: -3

What do the screens show for `COc1ccc(-c2cc(-c3ccccc3)no2)cc1`?
Bead autofluor: 3718; Sa RN4220 lethal: 6.5; PrP UTR inh: -24; Sa ugtP lethal: -1; Mtb hypoxia rep: 7; BJeLR lethal: 17; Mtb hypoxia rep growth: 4

Structural class, those above with bromine (2)
Results for O=C1NC2(CCCCCC2)N=C1c1ccc(Br)cc1 ?
Bead autofluor: 4246; Sa RN4220 lethal: 0.9; PrP UTR inh: -62; Sa ugtP lethal: -7; Mtb hypoxia rep: -7; BJeLR lethal: -3; Mtb hypoxia rep growth: -6

Results for Cc1c(NC(=O)CSCc2ccc(Br)cc2)c(=O)n(-c2ccccc2)n1C ?
Bead autofluor: 3288; Sa RN4220 lethal: 6.8; PrP UTR inh: 0; Sa ugtP lethal: 4; Mtb hypoxia rep: -1; BJeLR lethal: 2; Mtb hypoxia rep growth: -2
